# Screening results from PubChem.
# FGF22 binding: binders of human FGF22 protein, primary screen, FGF22 synaptogenesis inhibitor project, biophysical, thermal shift, single point. recombinant FGF22 thermal shift, SYPRO orange fluorescence; percent of sucrose octasulfate shift, DMSO zero. calls only at 9.99 µM. 340,000 tested, 1.5% active;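 active = melting point raised past a set limit in the mean and every replicate; three in four hits are not shown here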
# B2AR ag: beta2AR agonists driving receptor internalization, primary screen, cell-based, FAP fluorogen, flow cytometry; Beta-2 adrenergic receptor (Homo sapiens), P07550; response, % (no concentration beside the values); Am2.2-beta2AR cells; reference of the scale not given here; AID 504454, 2011; 340,000 tested, 0.43% active;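 active = response above a set limit, near 3 SD of response in nonfluorescent compounds, cut at about 42% in these data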;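 note: stock transfer was 100 nL into about 11 µL; a reference agonist was the positive control; negative values mostly stem from fluorescent compounds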
# ALR H2O2 inh: inhibitors of human ALR sulfhydryl oxidase, primary screen, biochemical, H2O2 detection, HRP-luminol luminescence, single point | FAD-linked sulfhydryl oxidase ALR (Homo sapiens), P55789 | purified ALR, DTT oxidation | inhibition, % (no concentration beside the values) | 290,000 tested, 3.8% active;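 active = mean and each replicate at 75% or more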;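 note: stock transfer was 7.5 nL into about 7.5 µL; 0% = neutral wells and 100% = wells with inactivated enzyme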
# LANA-H2B inh: blockers of LANA interaction with H2A/H2B – biochemical, FP readout, HTS, primary screen; Protein LANA1 (Human herpesvirus 8 type P (isolate GK18)), Q9QR71; cell-free LANA-H2A/H2B peptide, fluorescence polarization; inhibition, % (test concentration not listed); 320,000 tested, 0.6% active; in the data active = inhibition mostly above about 10%, no sharp cut-off; inactive = mostly below about 6.7%;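 note: stock transfer was 7.5 nL into about 10 µL; 0% = median of vehicle wells and 100% = median of positive control wells; one replicate is shown; the record names a cut of 25% in any replicate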
# Target sequence (Q9QR71 whole entry, looked up): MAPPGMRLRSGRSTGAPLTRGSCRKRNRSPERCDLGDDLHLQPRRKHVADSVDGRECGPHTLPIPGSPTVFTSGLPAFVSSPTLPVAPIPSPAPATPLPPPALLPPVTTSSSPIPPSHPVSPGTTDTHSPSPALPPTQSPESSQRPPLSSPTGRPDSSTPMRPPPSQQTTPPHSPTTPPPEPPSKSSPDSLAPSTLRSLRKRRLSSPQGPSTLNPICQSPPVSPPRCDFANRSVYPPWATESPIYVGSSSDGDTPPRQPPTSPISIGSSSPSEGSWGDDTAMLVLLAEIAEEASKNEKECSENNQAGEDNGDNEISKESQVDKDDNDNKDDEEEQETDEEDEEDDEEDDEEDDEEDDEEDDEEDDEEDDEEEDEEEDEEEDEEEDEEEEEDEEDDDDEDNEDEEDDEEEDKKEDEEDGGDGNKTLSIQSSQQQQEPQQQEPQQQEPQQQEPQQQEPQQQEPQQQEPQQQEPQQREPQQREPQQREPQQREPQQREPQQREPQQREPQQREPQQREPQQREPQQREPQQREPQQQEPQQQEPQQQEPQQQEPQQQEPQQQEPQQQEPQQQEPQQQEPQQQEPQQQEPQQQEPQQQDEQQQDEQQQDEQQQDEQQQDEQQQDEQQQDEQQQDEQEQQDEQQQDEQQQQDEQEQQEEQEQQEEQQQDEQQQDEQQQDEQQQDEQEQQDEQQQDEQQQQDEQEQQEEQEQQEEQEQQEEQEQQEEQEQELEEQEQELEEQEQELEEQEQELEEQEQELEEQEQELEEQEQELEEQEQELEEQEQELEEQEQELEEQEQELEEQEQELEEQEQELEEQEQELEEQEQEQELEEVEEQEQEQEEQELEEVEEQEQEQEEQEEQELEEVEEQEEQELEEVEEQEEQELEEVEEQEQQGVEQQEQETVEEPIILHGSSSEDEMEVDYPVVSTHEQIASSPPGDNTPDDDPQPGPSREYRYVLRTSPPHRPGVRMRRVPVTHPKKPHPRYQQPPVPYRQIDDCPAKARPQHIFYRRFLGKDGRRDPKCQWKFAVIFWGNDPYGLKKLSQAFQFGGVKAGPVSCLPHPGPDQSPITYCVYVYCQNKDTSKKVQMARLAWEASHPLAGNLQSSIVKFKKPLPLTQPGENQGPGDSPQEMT
# UCH37 inh: inhibitors of human UCH37 deubiquitinase, primary screen, biochemical, Ub-AMC cleavage, fluorescence; inhibition, % (no concentration beside the values); AID 588478, 2011; purified proteasome/UCH37; Ubiquitin carboxyl-terminal hydrolase isozyme L5 (Homo sapiens), Q9Y5K5; 330,000 tested, 0.33% active;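 active = mean of two replicates above 20%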;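 note: 0% = compound-free wells with enzyme and 100% = wells lacking proteasome; stock transfer was 100 nL into about 20 µL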
#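 System: Proteasome-associated human UCH37 deubiquitinase; Input: 0.15 nM proteasome in added enzyme buffer; Also added: Ub-AMC substrate from 1 µM stock; Incubation: 30 min compound-proteasome preincubation then 25 min substrate reaction, room temperature; Detection: fluorescence, ex 355 nm, em 460 nm; Read-out: % inhibition of Ub-AMC cleavage fluorescence; Benchmarks: no-proteasome and no-compound wells.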
# HNF4A DNA FP: change in binding of human HNF4A to DNA, primary screen, biochemical, fluorescence polarization, FITC-DNA; Hepatocyte nuclear factor 4-alpha (Homo sapiens), P41235; 1 h; activity change, % at 10 µM; 360,000 tested, 0.3% active; AID 1224865, 2016; in the data active = activity change above about 30%, passing the limit was not always enough;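 note: controls were the assay level and a saturating level of protein; the project sought stronger binding though the title names inhibitors; some compounds called inactive have numbers as strong as hits; positive values seem to mean higher polarization but the record does not say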
# Ecoli growth: E. coli growth inhibition, primary screen, OD600; 330,000 tested, 0.21% active; OD600 absorbance (test concentration not listed); Escherichia coli growth, 23 h; stronger effect = lower value;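 active = OD600 absorbance below the run mean of sample wells minus 3.6 SD, in any replicate, cut at about 0.56 in these data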;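 note: stock transfer was 300 nL into about 60 µL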
# Starred values were filed as active, the others as inactive; i = inactive; . = no result given. This is a subset, so the mix of outcomes need not match the whole.
smiles	Ecoli growth	B2AR ag	ALR H2O2 inh	HNF4A DNA FP	UCH37 inh	FGF22 binding	LANA-H2B inh
CC(C)=CC(=O)OCC(=O)Nc1nc(C)c(Cl)cc1Cl	0.67	1	-23	-1.4	0.0	.	-1.7
Cc1[nH]c2c(Cl)cccc2c(=O)c1CN1CCCCCC1	0.66	7	-1	1.8	2.3	i	1.4
COc1ccc(CC(=O)NCc2ccco2)cc1OC	0.63	2	.	0.7	0.9	i	5.1
COc1cc(C(C)=O)ccc1OCC(=O)NC(=O)Nc1ccc(C)cc1C	0.69	11	-5	-2.2	4.3	i	-1.0
COc1ccc(/C=C/C(=O)Nc2cccc(S(=O)(=O)NC3=NCCCCC3)c2)cc1OC	0.69	8	.	-2.6	-19	i	2.9
O=C(c1cccc(N2C(=O)C3CC=CCC3C2=O)c1)N1CCCc2ccccc21 (centres undefined)	0.69	-4	-8	1.7	-0.6	i	1.1
CCCc1cc(=O)[nH]c2nnc(SCC(=O)NCc3ccc4c(c3)OCO4)n12	0.69	15	-2	-4.4	2.2	i	5.0
Cc1cccc(CN2CCN(c3nc4nonc4nc3NC3CC3)CC2)c1	0.65	4	-13	-6.0	6.6	i	-0.7
COc1ccc(CCNC(=O)CN2C(=O)NC3(CCCCC3)C2=O)cc1	0.7	1	-2	9.2	0.3	i	1.9
Cc1ccc(N(CC(=O)Nc2cc(Cl)ccc2Oc2ccccc2)S(C)(=O)=O)cc1C	0.81	-4	-1	3.9	0.3	.	-3.9
CC1CCN(CCn2c(=S)[nH]c3cc4c(cc3c2=O)OCO4)CC1	0.65	-8	53	-2.3	3.5	i	-3.1
N#Cc1ccc(NC(=O)Nc2ccc(Cl)cc2)cc1	0.49*	11	-4	-2.7	3.8	.	-0.5
O=C(NN1C(=O)C2C3C=CC(C4CC34)C2C1=O)c1cccc(Br)c1 (centres undefined)	0.6	3	-6	-0.1	-0.2	i	-2.9
CC(=O)OCC1OC(OCc2cn(C[C@H]3CC[C@H](Cn4cc(COC5OC(COC(C)=O)C(OC(C)=O)C(OC(C)=O)C5OC(C)=O)nn4)O3)nn2)C(OC(C)=O)C(OC(C)=O)C1OC(C)=O (some centres undefined)	.	-2	-2	-0.4	1.6	i	0.1
O=C(Nc1cccc(C(F)(F)F)c1)N1CCC(c2nc(-c3ccc(F)cc3)no2)CC1	0.64	7	-4	2.6	2.0	.	-0.8
CC(C)c1ccc(OCC(=O)NCc2ccco2)cc1	0.69	14	-2	-2.6	3.2	.	-0.5
CC[n+]1c(/C=C/N(C)c2ccccc2)n(-c2ccccc2)c2ccc(-c3nc4ccccc4s3)cc21	0.38*	23	-78	31	-17	.	-8.9
CSCCC(=O)Nc1cc(S(=O)(=O)N2CCOCC2)ccc1N1CCN(C)CC1	0.66	-6	-4	-2.4	4.6	i	-2.7
Cc1cn(CC(=O)N[C@H](C)c2cccc3ccccc23)c(=O)[nH]c1=O	.	-1	.	5.2	.	i	.
Cc1ccsc1C1C(C#N)=C(N)N(N(C)C)C2=C1C(=O)CCC2 (centres undefined)	0.67	6	-11	-1.4	5.6	.	1.9
COc1ccc(NC(=O)c2cc(-c3cccc(OC)c3)on2)cc1	0.71	-7	-7	0.1	-31	i	-2.1
O=C(NC1CCCCC1)C(Cc1ccccc1)NS(=O)(=O)c1cccs1 (centres undefined)	0.64	9	.	-0.7	5.5	.	2.6
Cc1ccc(CNS(=O)(=O)c2ccc(-n3cnnn3)c(C)c2)cc1	0.68	3	-4	1.1	3.9	i	3.1
Cc1cccc(C)c1NC(=O)CN(C)C(=O)c1ccccc1Sc1ccccc1C#N	0.69	-1	.	2.1	4.2	i	-0.4
O=C(NCc1ccncc1)C1CCC(=O)N(CCc2ccc(Cl)cc2)C1 (centres undefined)	0.69	-6	5	1.2	-1.7	i	-1.6
COc1cccc(CN2CCSCC2)c1OC	0.68	7	.	-1.4	1.2	i	-2.3
CCCOc1ccc(C(=O)OCC(=O)c2c(N)n(C)c(=O)n(C)c2=O)cc1OC	0.68	-6	-2	2.4	-1.0	i	3.4
CCOC(=O)C1C(=O)OC2(CCCCC2)C1C(=O)OCC (centres undefined)	0.66	17	1	-0.8	0.3	.	-2.0
CCN(CC(O)COc1ccc(OCC(O)CN(CC)C2CCCCC2)cc1)C1CCCCC1 (centres undefined)	0.68	5	-5	-0.8	-2.7	.	-1.5
CCOc1ccc(NC(=O)CN(C)C(=O)Cn2c(=O)oc3ccccc32)cc1OCC	0.67	-5	3	-2.6	1.8	i	-0.1
COc1ccc(C(=O)NC2CCN(C(=S)Nc3ccc(C)c(C)c3)CC2)cc1	0.72	11	-30	0.5	0.9	i	3.4
CN1C(C)(C)c2ccccc2OS1(=O)=O	0.69	-1	2	-1.2	2.0	i	-5.3
COC(=O)c1ccccc1NC(=O)c1ccccc1NS(C)(=O)=O	0.65	-2	5	2.0	0.3	.	1.3
Cc1ccc(-c2nnc(SCC(=O)N3CCOCC3)nc2-c2ccc(C)cc2)cc1	0.66	-2	95*	2.1	0.0	.	4.4
COc1ccc(CCNC(=O)c2cccc(Br)c2)cc1OC	0.7	-3	-11	2.8	1.2	i	-7.6
CCN1C(=O)[C@H]2[C@H]3CN=C(SCc4ccc(C(=O)OC)cc4)N3[C@@](Cc3ccccc3)(C(=O)OC)[C@H]2C1=O	0.71	-3	.	1.9	0.2	.	.
CCn1nc(C(=O)NCc2ccco2)c(Cl)c1Cl	0.72	3	.	0.7	3.7	i	-1.1
COc1cc(/C=N/NS(=O)(=O)c2ccc(C)cc2)ccc1OCc1ccc(C(=O)O)cc1	.	7	22	2.8	.	.	1.8
O=C(NCCCN1CCN(Cc2ccccc2)CC1)C1CCN(c2nnc(-n3cccc3)s2)CC1	0.7	-14	-6	0.6	0.0	.	-4.2
CCOc1ccc(S(=O)(=O)n2c(C)nc3ccccc32)cc1	0.74	0	.	-4.7	5.4	i	1.6
CC1=C(C(=O)OCc2ccccc2)C(c2ccc3ccccc3c2)NC(=O)N1CCCCCC(=O)O (centres undefined)	0.69	.	.	.	2.9	i	-1.9
COc1ccc(/C(O)=C/Sc2nnc(Cc3ccccc3)o2)cc1	0.64	7	4	5.0	3.2	.	-7.2
Cn1c(SCc2cnc(-c3ccccc3)s2)nnc1C1COc2ccccc2O1 (centres undefined)	0.71	-10	-56	-0.8	2.0	.	2.7
CCCn1c2ccccc2c2cnn(CC(=O)NC(C)CC)c(=O)c21 (centres undefined)	0.68	-9	-2	1.1	-17	i	1.6
CCN(CC(=O)Nc1ccc2c(c1)OCCO2)C(=O)/C=C/c1ccc(OC)cc1OC	0.71	4	-3	-1.9	4.4	i	2.0
Cc1ccc(C2(C)NC(=O)N(CC(=O)NC(=O)NC(C)C)C2=O)cc1 (centres undefined)	0.64	-4	-21	0.1	3.7	i	-1.5
O=C(NCCCN1CCOCC1)c1cn(-c2ccccc2)nc1-c1ccc(Br)cc1	0.63	7	1	0.1	-1.7	i	0.4
CN(C)c1ccncc1C(=O)Nc1ccc(F)cc1F	0.65	0	-1	-2.7	3.2	i	-0.3
CCN(CC)S(=O)(=O)c1ccc2oc(C(=O)NC(C)C)c(C)c2c1	0.65	5	-9	-0.6	1.1	.	4.3
CC(C)NC(=O)COc1nncc2ccccc12	0.71	0	100*	-0.9	-0.2	i	2.4

# New compounds follow
smiles	Ecoli growth	B2AR ag	ALR H2O2 inh	HNF4A DNA FP	UCH37 inh	FGF22 binding	LANA-H2B inh
O=C(CN1CCOCC1)N/N=C/c1ccc(-c2ccc(C(=O)O)cc2)o1	.	-4	-15	-2.3	.	i	-2.7
CSc1nc2nccc(/C=C\c3ccccc3)n2n1	0.72	-13	.	4.6	1.7	.	4.5
Cc1ccc(-n2ncc3c2CCCC3NC(=O)CCN2CCCC2=O)cc1C (centres undefined)	0.71	-4	3	-1.5	-0.7	i	0.4
COc1cccc(OCc2ccc(C(=O)NCC3CCCO3)cc2)c1 (centres undefined)	0.69	1	.	-1.2	1.5	.	.
COc1ccc(-n2c(SCC#N)nc3c(sc(=S)n3-c3ccccc3)c2=O)c(OC)c1	0.62	6	.	-1.1	8.0	i	-6.9
Cc1ccc(C(=O)Nc2cc3c(cc2N2CCCCC2)n(C)c(=O)n3C)cc1	0.68	6	-7	-1.4	-25	.	0.3
COc1ccc(C2(C)NC(=O)N(CC(=O)c3cc(C)n(C4CC4)c3C)C2=O)cc1OC (centres undefined)	0.71	-7	6	0.3	3.9	i	0.2
Nc1nnc2c(C(F)(F)F)nc3ccccc3n12	0.61	13	.	-1.9	-65	i	-1.3
O=C(NC1CCCC1)C(c1cccnc1)N(Cc1ccccc1F)C(=O)c1csnn1 (centres undefined)	0.63	-3	1	-0.3	-1.4	i	-0.8
C/C(=N\NC(=O)c1ccc2c(c1)OCO2)c1ccc(O)cc1	.	3	-29	2.3	.	i	2.6
CC1CCCN(C(=O)COc2ccc(Nc3ccccc3)cc2)C1 (centres undefined)	0.73	-1	99*	4.7	8.3	i	1.8
CCOC(=O)C1CCN(C(=O)CCc2nnc3ccc(N4CCC(C)CC4)nn23)CC1	0.69	-2	0	-1.5	7.0	i	-4.6
Clc1cccc2sc(-c3nnc(-c4ccccc4)o3)c(Cl)c12	0.77	-9	-4	1.4	-47	.	-3.2
Cn1c(SCc2nc3ccccc3s2)nnc1-c1cccs1	0.69	-13	71	-2.3	2.8	.	3.8
COc1ccc(C(=O)NCCSCc2ccc(C)cc2)cc1	0.7	2	-8	3.0	4.1	.	9.8
Brc1ccc(OCc2nc(-c3ccccn3)n[nH]2)cc1	0.69	-6	1	3.1	1.0	.	4.6
CCOC(=O)c1ccc(S(=O)(=O)N2CCN(C(=O)c3cccc(S(=O)(=O)N4CC(C)OC(C)C4)c3)CC2)cc1 (centres undefined)	0.67	22	.	-3.6	-0.9	i	.
CCC(C)(C(=O)NC1CCCCC1)N(C(=O)CC1NC(=O)NC1=O)c1c(C)n(C)n(-c2ccccc2)c1=O (centres undefined)	0.71	2	.	2.0	2.8	i	1.3
Cc1ccc2nc(SCCC#N)nc(C)c2c1	0.7	3	-9	2.0	5.5	.	2.8
Cc1ccc(S(=O)(=O)Nc2ccc(S(=O)(=O)N3CCOCC3)cc2)cc1	0.68	8	-6	-3.6	2.2	i	-3.5
CCOc1ccc(-c2nn(-c3ccccc3)cc2/C=C2\SC(=S)N(C3CCS(=O)(=O)C3)C2=O)cc1 (centres undefined)	0.74	14	-4	1.6	7.8	.	2.4
O=C(O)c1ccc2c(=O)n3c(nc2c1)/C(=C/c1ccc(Cl)c([N+](=O)[O-])c1)CC3	0.67	3	1	0.3	1.4	i	-3.3
COc1ccc(CCNC(=O)c2ccc(CSc3ccccc3)o2)cc1	0.68	0	-8	-1.9	1.6	i	-4.7
O=C1CCc2ccccc2N1	0.72	-5	.	1.4	0.5	i	0.0
COc1ccccc1N(C(=O)c1snc(C(N)=O)c1N)C(C(=O)NCCC(C)C)c1ccco1 (centres undefined)	0.71	0	3	1.9	-221	.	-6.5
O=C(CSc1ncnc2c1nnn2Cc1ccccc1)NC1CCCCC1	0.75	3	4	0.2	0.9	i	2.5
